Source: PubChem
Sa growth 42C – inhibitors of Staphylococcus aureus growth at 42 °C. S. aureus RN4220 growth, OD600, 20 h; hits give low values. relative growth, % (no concentration beside the values). actives 0.53% (n = 170,000). AID 720641;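 active = growth at 42 °C up to 50% and 20 or more points under that at 30 °C, or under 10% at both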;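 note: 300 nL library stock went into each well; scaled to the means of positive and negative controls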
GIV-Gai inh – GIV-Galpha-i interaction inhibition | percent of control (FP), % (no concentration beside the values) | Galpha-i3/FITC-GIV peptide fluorescence polarization, 90 min; hits give low values; scaled: aluminum fluoride 0%, vehicle 100% | P08753 | actives 0.42% (n = 210,000);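 active = replicate mean at 85% of control or lower, very high polarization wells dropped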;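 note: wells of about 15 µL received 100 nL stock; the first replicate is given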
Target sequence (P08753 whole entry, looked up): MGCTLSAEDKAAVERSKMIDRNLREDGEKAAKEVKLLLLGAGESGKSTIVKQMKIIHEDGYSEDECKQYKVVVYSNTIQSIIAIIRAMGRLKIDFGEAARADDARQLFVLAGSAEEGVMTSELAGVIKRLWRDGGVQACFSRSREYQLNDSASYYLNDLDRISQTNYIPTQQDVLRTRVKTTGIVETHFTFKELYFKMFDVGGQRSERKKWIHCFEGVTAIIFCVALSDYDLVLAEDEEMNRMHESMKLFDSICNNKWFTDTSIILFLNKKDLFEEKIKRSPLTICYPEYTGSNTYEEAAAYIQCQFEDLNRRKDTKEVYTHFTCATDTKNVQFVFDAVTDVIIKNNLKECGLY
Sa growth 42C second temp – recorded beside Sa growth 42C, whose call it bears; relative growth, %; measured here: growth at 30 °C;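 optical density after 20 h as mean of two plates; 100% = untreated growth and lower means inhibition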
* hit, by the source's call; / = no result given. This is a subset (hit frequency here may not be typical).

SMILES | Sa growth 42C | GIV-Gai inh | others
NC1CN2CCC1CC2 (stereo not drawn) | 91 | / | Sa growth 42C second temp=92
Oc1ccc2c3c1OC1C(O)CC[C@@]4(O)[C@@H](C2)N(CC2CCC2)CC[C@]314 (stereo partly drawn) | 101 | / | Sa growth 42C second temp=95
C[C@]12CCC(=O)C[C@@H]1CC[C@@H]1[C@@H]2CC[C@@]2(C)[C@H]1CC[C@]2(C)O | 97 | / | Sa growth 42C second temp=93
CN1CC[C@@H](c2ccc(F)cc2)[C@H](COc2ccc3c(c2)OCO3)C1 | 94 | / | Sa growth 42C second temp=74
C[C@]12CC(=CO)C(=O)C[C@@H]1CC[C@@H]1[C@@H]2CC[C@@]2(C)[C@H]1CC[C@]2(C)O | 88 | / | Sa growth 42C second temp=77
COc1ccc2c(c1)C1(CCN(C(=O)CC(C)C)C1)C(=O)N2C (stereo not drawn) | / | 105
CCCC1C(c2ccccc2)NC(c2ccccc2)CC1(O)c1ccc(F)cc1 (stereo not drawn) | / | 115
Cc1ccc(C)c(Cn2cccc(C(=O)Nc3ccon3)c2=O)c1 | / | 113
COc1ccc(NC(=O)c2cccn(Cc3cccc(F)c3)c2=O)cc1OC | / | 102
Cc1ccccc1C(=O)N/N=C/C12CC[C@@H](O)CC1(O)CC[C@@H]1[C@@H]2CCC2(C)C(C3=CC(=O)OC3)CCC12O (stereo partly drawn) | / | 98
O=C1CN=C(c2ccc(F)cc2)c2oc3ccccc3c2N1 | / | 108
CCC(=O)OC1(c2ccccc2)CCN(C)CC1C (stereo not drawn) | / | 108
O=C1Nc2ccc(Br)cc2C(c2ccc(Cl)cc2)=NC1O (stereo not drawn) | / | 116
N#CC1=C(N)Oc2c(c(=O)oc3ccccc23)C1c1ccccc1OC(=O)N1CCOCC1 (stereo not drawn) | / | 111
CCOC(=O)C1=C(NC(=O)Cc2ccccc2)c2ccccc2CC12CCCC2 | / | 120
O=C(Oc1cccc2cccnc12)c1cc(S(=O)(=O)N2CCCCC2)c(Cl)cc1Cl | / | 112
CCCCN(C(=O)c1ccccc1)C1=CC2CCC(C1)N2C (stereo not drawn) | / | 104
CCN1CCN(c2nccn(CC)c2=O)CC1 | / | 104
O=C1Nc2ccc(Br)cc2C(c2ccccc2Cl)=NC1O (stereo not drawn) | / | 115
CCCC(=O)N1CCC2(C1)C(=O)N(C)c1ccc(OC)cc12 (stereo not drawn) | / | 101

13 consecutive records out of the list so far, for reference:
SMILES | Sa growth 42C | GIV-Gai inh | others
NC1CN2CCC1CC2 (stereo not drawn) | 91 | / | Sa growth 42C second temp=92
Oc1ccc2c3c1OC1C(O)CC[C@@]4(O)[C@@H](C2)N(CC2CCC2)CC[C@]314 (stereo partly drawn) | 101 | / | Sa growth 42C second temp=95
C[C@]12CCC(=O)C[C@@H]1CC[C@@H]1[C@@H]2CC[C@@]2(C)[C@H]1CC[C@]2(C)O | 97 | / | Sa growth 42C second temp=93
CN1CC[C@@H](c2ccc(F)cc2)[C@H](COc2ccc3c(c2)OCO3)C1 | 94 | / | Sa growth 42C second temp=74
C[C@]12CC(=CO)C(=O)C[C@@H]1CC[C@@H]1[C@@H]2CC[C@@]2(C)[C@H]1CC[C@]2(C)O | 88 | / | Sa growth 42C second temp=77
COc1ccc2c(c1)C1(CCN(C(=O)CC(C)C)C1)C(=O)N2C (stereo not drawn) | / | 105
CCCC1C(c2ccccc2)NC(c2ccccc2)CC1(O)c1ccc(F)cc1 (stereo not drawn) | / | 115
Cc1ccc(C)c(Cn2cccc(C(=O)Nc3ccon3)c2=O)c1 | / | 113
COc1ccc(NC(=O)c2cccn(Cc3cccc(F)c3)c2=O)cc1OC | / | 102
Cc1ccccc1C(=O)N/N=C/C12CC[C@@H](O)CC1(O)CC[C@@H]1[C@@H]2CCC2(C)C(C3=CC(=O)OC3)CCC12O (stereo partly drawn) | / | 98
O=C1CN=C(c2ccc(F)cc2)c2oc3ccccc3c2N1 | / | 108
CCC(=O)OC1(c2ccccc2)CCN(C)CC1C (stereo not drawn) | / | 108
O=C1Nc2ccc(Br)cc2C(c2ccc(Cl)cc2)=NC1O (stereo not drawn) | / | 116

Further entries:
SMILES | Sa growth 42C | GIV-Gai inh | others
Cc1cc(OCC(=O)OCc2ccccc2)c2c3c(c(=O)oc2c1)CCCC3 | / | 121
COc1ccccc1Cn1c(SCC#N)nc2cc(C(=O)N3CCC4(CC3)OCCO4)ccc2c1=O | / | 103
CCC(=O)OC1N=C(c2ccccc2Cl)c2cc(Br)ccc2NC1=O (stereo not drawn) | / | 113
CC1(C)COP(=S)(C(Nc2ccccc2)c2ccccc2)OC1 (stereo not drawn) | / | 110
COCCNC(=O)N1CCC2(C1)C(=O)Nc1ccc(OC)cc12 (stereo not drawn) | / | 104
O=C1CN=C(c2ccc(Cl)cc2)c2oc3ccccc3c2N1 | / | 114
CCOC(=O)c1c(CN2CCN(c3ccccc3)CC2)n(Cc2ccccc2)c2cc(Br)c(O)cc12 | / | 102
Cc1ccc(Cn2cccc(C(=O)Nc3nccs3)c2=O)cc1 | / | 100
COc1ccc2c(c1)C1(CCN(C(=O)NC(C)C)C1)C(=O)N2C (stereo not drawn) | / | 106
Nc1ccc2c(c1)C13CCN4CC5=CCOC6CC(=O)N2C1C6C5CC43 (stereo not drawn) | / | 105
Nc1nc2nonc2n2nnnc12 | / | 106
COC(=O)C1C(=O)NC2(C)CC1c1cccc(OC)c1O2 (stereo not drawn) | / | 103
CCOC(=O)c1c(CN2CCN(CC#N)CC2)n(Cc2ccccc2)c2cc(Br)c(O)cc12 | / | 113
COC(=O)C1=C(N)Oc2c(c(=O)oc3ccccc23)C12C(=O)Nc1ccccc12 (stereo not drawn) | / | 106
OC12Oc3ccccc3C=C1N1CCC2CC1 (stereo not drawn) | / | 114
CN1CCC(OC(=O)c2ccccc2)(c2ccccc2)C(C)(C)C1 (stereo not drawn) | / | 105
O=C(O)c1ccc2c(c1)C1C(Cl)C(Sc3ccccc3[N+](=O)[O-])CC1C(c1ccccc1Cl)N2 (stereo not drawn) | / | 120
CCOC(=O)C1=C(C)OC(N)=C(C(=O)OCCOC)C12C(=O)Nc1ccccc12 (stereo not drawn) | / | 112
COc1cccc(CC(=O)N2CCN(Cc3nc4cc(C(=O)N5CCCC5)ccc4n3C)CC2)c1 | / | 102
CCc1ccc(OCC(=O)N2CCN(CC(=O)Nc3nnc(-c4ccccc4)s3)CC2)cc1 | / | 101
O=C(O)C1CCCCC1C(=O)N1CC2CC(C1)c1cccc(=O)n1C2 (stereo not drawn) | / | 113
CC12CC[C@H]3[C@@H](CCC4(O)C[C@H](O)CCC34/C=N/NC(=O)CCc3c[nH]c4ccccc34)C1(O)CCC2C1=CC(=O)OC1 (stereo partly drawn) | / | 106
COC(=O)C1C2c3ccccc3O[C@]1(C)N=c1s/c(=C/c3cccc(OC)c3)c(=O)n12 (stereo partly drawn) | / | 106
O=C(OC1N=C(c2ccccc2Cl)c2cc(Br)ccc2NC1=O)c1ccccc1 (stereo not drawn) | / | 109
Cn1c(SCc2nc3ccccc3c(=O)n2-c2ccccc2)nc2ccccc21 | / | 114
O=C(CCN1C(=O)C2C3C=CC(C3)C2C1=O)N1CC2CC(C1)c1cccc(=O)n1C2 (stereo not drawn) | / | 115
O=C(Nc1ccc(F)cc1F)c1cccn(Cc2ccc(Br)cc2)c1=O | / | 103
O=C(Oc1cccc2cccnc12)c1cc(S(=O)(=O)N2CCOCC2)ccc1Cl | / | 100
Cc1cc2c(c(C(C)(C)C)c1)O[P+](=O)Oc1c(cc(C)cc1C(C)(C)C)C2 | / | 108
CCOC(=O)Cc1csc(NC(=O)c2cccn(Cc3cc(C)ccc3C)c2=O)n1 | / | 108
COc1ccc(N2C(=O)NC(=O)/C(=C\c3cn(CC(=O)Nc4ccccc4)c4ccccc34)C2=O)cc1 | / | 89
COc1ccc(CCC(=O)N2CCC3(C2)C(=O)Nc2ccc(OC)cc23)cc1 (stereo not drawn) | / | 107
CCOc1ccc(-n2c(C)nc3cc(C(=O)N4CCC5(CC4)OCCO5)ccc32)cc1 | / | 110
O=C1Nc2ccc(Br)cc2C(c2ccccc2)=NC1O (stereo not drawn) | / | 112
O=C(c1ccccc1)c1cc(Cl)cc2c1NC(c1ccccc1F)C1CC(Sc3ccccc3[N+](=O)[O-])C(Cl)C21 (stereo not drawn) | / | 105
CCCCN(C(=O)c1ccc(Cl)cc1)C1=CC2CCC(C1)N2C (stereo not drawn) | / | 104
COc1ccc2c(c1)C1(CCN(C(=O)C3CCCC3)C1)C(=O)N2 (stereo not drawn) | / | 104
O=C(Nc1nc2ccc(Br)cc2s1)c1c(O)c2c(n(Cc3ccccc3)c1=O)CCCC2 | / | 109
OC1(c2ccccc2)C[N+]2=C(CCCCC2)N1c1ccc(Br)cc1 (stereo not drawn) | / | 105
CCOC(=O)N(c1ccccc1)P1(=S)OCCO1 | / | 107
CC12CC[C@H]3[C@@H](CCC4(O)C[C@H](O)CCC34/C=N/NC(=O)c3cccc(Br)c3)C1(O)CCC2C1=CC(=O)OC1 (stereo partly drawn) | / | 102
CCCCCC(=O)N1c2ccc(C)cc2C2CN(C)CCC21 (stereo not drawn) | / | 101
Cc1ccc(C)c(Cn2cccc(C(=O)Nc3nc4ccccc4s3)c2=O)c1 | / | 106
CC12CC[C@H]3[C@@H](CCC4(O)C[C@H](O)CCC34/C=N/NC(=O)c3cncc(Br)c3)C1(O)CCC2C1=CC(=O)OC1 (stereo partly drawn) | / | 105
O=C(O)c1cccc2c1NC(c1cccc(Br)c1)C1CC(Sc3ccccc3[N+](=O)[O-])C(Cl)C21 (stereo not drawn) | / | 105
O=C(Cc1ccccc1)OC1=C(c2ccccc2)C(=O)c2ccccc21 | / | 106
CC(=O)C1=C(C)OC(N)=C(C#N)C12C(=O)Nc1ccc([N+](=O)[O-])cc12 (stereo not drawn) | / | 96
CN1C(=O)C(O)N=C(c2ccccc2)c2ccccc21 (stereo not drawn) | / | 103
O=C(Nc1nccs1)c1cccn(Cc2ccccc2F)c1=O | / | 106
Cc1ccc(C)c(Cn2cccc(C(=O)Nc3nc(C)cs3)c2=O)c1 | / | 99
C=CCOC(=O)C1=C(N)OC(C)=C(C(=O)OCc2ccccc2)C12C(=O)Nc1ccccc12 (stereo not drawn) | / | 115
COc1cc2c3cc1Oc1cc(ccc1O)CC1c4c(cc(OC)c(O)c4Oc4ccc(cc4)CC3N(C)CC2)CCN1C (stereo not drawn) | / | 105
CC(C)CCn1c(=O)c(C(=O)Nc2nc3ccc(F)cc3s2)c(O)c2ccccc21 | / | 104
CCCCCC(C)C(C)c1cc(OCCCCN2CCOCC2)c2c(c1)OC(C)(C)C1=C2CCC1 (stereo not drawn) | / | 106
CCC1CN(C)CCC1(OC(=O)c1ccccc1)c1ccccc1 (stereo not drawn) | / | 112
CCCCC(=O)N1CCC2(C1)C(=O)N(C)c1ccc(OC)cc12 (stereo not drawn) | / | 102
Cc1cc(OCC(=O)OC(C)C)c2c3c(c(=O)oc2c1)CCCC3 | / | 121
COc1c(Cl)cc(Cl)cc1-c1c(C#N)c(N)n2c(nc3ccccc32)c1C#N | / | 102
CCOC(=O)C1=C(C)OC(N)=C(C#N)C12C(=O)Nc1ccc(Cl)cc12 (stereo not drawn) | / | 112
CC12CC[C@H]3[C@@H](CCC4(O)C[C@H](O)CCC34/C=N/NC(=O)c3cccnc3)C1(O)CCC2C1=CC(=O)OC1 (stereo partly drawn) | / | 103
Remaining list, next part
SMILES | Sa growth 42C | GIV-Gai inh | others
CC(C)CCn1c(=O)c(C(=O)Nc2cccc(Br)c2)c(O)c2ccccc21 | / | 104
CCNC1(c2nnnn2-c2cccc(Cl)c2)CCC(C)CC1 (stereo not drawn) | / | 103
CC(=O)OC1N=C(c2ccccc2Cl)c2cc(Br)ccc2N(C)C1=O (stereo not drawn) | / | 109
CCCCn1c(=O)c(C(=O)Nc2cccc(Br)c2)c(O)c2ccccc21 | / | 111
COc1ccc2c(c1)C1(CCN(S(=O)(=O)c3c(C)noc3C)C1)C(=O)N2C (stereo not drawn) | / | 111
Cc1ccc2c(c1)C1CN(C)CCC1N2C(=O)C1CCCC1 (stereo not drawn) | / | 104
COc1ccc2c(c1)C1(CCN(C(=O)NC3CCCCC3)C1)C(=O)N2 (stereo not drawn) | / | 105
COc1ccc(-n2nnnc2C2(NC3CCCCC3)CCCCC2)cc1 | / | 102
CCNC(=O)N1CCC2(C1)C(=O)Nc1ccc(OC)cc12 (stereo not drawn) | / | 106
COc1ccc2c(c1)C1(CCN(C(=O)C(C)C)C1)C(=O)N2C (stereo not drawn) | / | 109
COc1cc(OC)cc(-n2nc(C(=O)N3CCC4(CC3)OCCO4)c3ccccc3c2=O)c1 | / | 98
COc1ccc2oc3c(c2c1)NC(=O)CN=C3c1ccccc1 | / | 108
O=C(Cc1ccccc1F)N1CCCN(Cc2noc(-c3ccccc3)n2)CC1 | / | 104
COc1ccc2c(c1)C1(CCN(C(=O)NCCc3ccccc3)C1)C(=O)N2C (stereo not drawn) | / | 103
COc1ccc(S(=O)(=O)N2CCC3(C2)C(=O)Nc2ccc(OC)cc23)cc1 (stereo not drawn) | / | 110
COc1cc(C(=O)N/N=C/C23CC[C@@H](O)CC2(O)CC[C@@H]2[C@@H]3CCC3(C)C(C4=CC(=O)OC4)CCC23O)ccc1O (stereo partly drawn) | / | 107
O=C(Cc1ccccc1)N1CCN(Cc2cc(=O)n3nc(-c4ccccc4)sc3n2)CC1 | / | 99
O=c1cccc2n1CC1CC2CN(c2ncnc3c2cnn3-c2ccccc2)C1 (stereo not drawn) | / | 107
Cc1ccc(C2c3cccn3-c3ccccc3CN2S(=O)(=O)c2cccc3nsnc23)cc1 (stereo not drawn) | / | 112
CCOC(=O)C1=C(N)OC2=C(C(=O)CCC2)C12C(=O)Nc1ccc(Br)cc12 (stereo not drawn) | / | 98
CC(C)CCn1c(=O)c(C(=O)Nc2nc3ccc(Cl)cc3s2)c(O)c2ccccc21 | / | 103
CN1C(=O)C(O)N=C(c2ccccc2)c2cc(Br)ccc21 (stereo not drawn) | / | 105
